Rango dissoc inh: qHTS Assay for Inhibitors of RanGTP induced Rango (Ran-regulated importin-beta cargo) - Importin beta complex dissociation | Biochemical FRET Rango-importin beta, RanGTP-induced dissociation | Potency, µM (series often up to 46.1 µM), inactives show at the top dose activity change, negative = inhibition | 340,000 tested, 0.071% active; active means falling FRET ratio curve, often poorly fitted, with flat reads before Ran was added; inconclusive means other falling curves, or compound fluorescence or quenching; inactive means flat or rising ratio curve;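 also: potency is read from the fitted curve at half-maximal effect; % of control where 0% means no effect; nearly all actives have a fitted effect of over 45% in size; -100% = wells without RanGTP and RCC1; the record marks most hits as doubtful in a second field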
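Compounds sat 5 min at room temperature with 0.1 uM Rango biosensor plus 0.25 uM importin beta, then FRET pre-read. RanGTP-RCC1 (0.6 uM Ran, 2mM GTP, 0.2 uM RCC1) added for 45 min, and the CFP/YFP post-read measured blocked complex dissociation.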
GLA inh pH 4.5: qHTS Assay for Inhibitors of Human alpha-Galactosidase at pH 4.5. activity change, negative = inhibition, % at 105 µM. Alpha-galactosidase A (Homo sapiens), P06280. 230,000 tested, under 10 active. purified enzyme, 4-MU-alpha-Gal fluorescence, pH 4.5. AID 1467, 2008; inconclusive = small, poorly fitted or top-dose-only inhibition, or a rising curve; inactive = flat fitted curve, though single readings scatter; no compound was filed as active;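 also: 0% = full activity with enzyme and -100% = basal without enzyme; dose as in the result columns while the protocol names 77 µM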
Rango complex inh: qHTS Assay for Inhibitors of Rango (Ran-regulated importin-beta cargo) - Importin beta complex formation. Importin subunit beta-1 (Homo sapiens), Q14974. Rango CFP/YFP FRET sensor + importin beta, 45 min. Potency, µM (highest dose often 92.2 µM), without a hit: top-dose inhibition of complex formation. 340,000 tested, 0.031% active; active = rising FRET ratio curve, often small or poorly fitted; inconclusive = mostly compound fluorescence or quenching in the first reads; inactive = flat curves in all reads;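 also: potency is read from the fitted curve at half-maximal effect; 0% = DMSO wells and 100% = buffer wells lacking importin beta; nearly all actives have a fitted effect of over 15% in size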
Target sequence (Q14974 whole entry, looked up): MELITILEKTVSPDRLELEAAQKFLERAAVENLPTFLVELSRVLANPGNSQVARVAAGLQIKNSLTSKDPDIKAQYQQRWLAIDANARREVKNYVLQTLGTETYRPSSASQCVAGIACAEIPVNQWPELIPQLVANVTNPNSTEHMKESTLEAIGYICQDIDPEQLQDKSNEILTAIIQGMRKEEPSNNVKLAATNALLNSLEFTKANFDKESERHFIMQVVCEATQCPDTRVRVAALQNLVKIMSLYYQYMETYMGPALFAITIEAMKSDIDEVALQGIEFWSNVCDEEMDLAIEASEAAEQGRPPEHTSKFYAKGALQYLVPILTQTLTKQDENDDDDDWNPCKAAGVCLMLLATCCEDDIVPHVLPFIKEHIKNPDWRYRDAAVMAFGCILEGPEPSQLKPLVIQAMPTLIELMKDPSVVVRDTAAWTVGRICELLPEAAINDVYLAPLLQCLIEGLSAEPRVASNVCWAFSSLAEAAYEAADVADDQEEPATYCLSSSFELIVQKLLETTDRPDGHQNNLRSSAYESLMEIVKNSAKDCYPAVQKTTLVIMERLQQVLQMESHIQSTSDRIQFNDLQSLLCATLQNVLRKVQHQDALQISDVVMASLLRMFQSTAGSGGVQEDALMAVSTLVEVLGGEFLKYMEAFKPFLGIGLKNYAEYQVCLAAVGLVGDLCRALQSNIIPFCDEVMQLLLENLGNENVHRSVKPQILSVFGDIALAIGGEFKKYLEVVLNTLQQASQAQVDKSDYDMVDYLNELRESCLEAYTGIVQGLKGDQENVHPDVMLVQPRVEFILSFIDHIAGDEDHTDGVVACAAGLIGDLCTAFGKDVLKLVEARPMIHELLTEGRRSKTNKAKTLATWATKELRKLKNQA
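Inhibition scored from the CFP 486 nm/YFP 530 nm FRET ratio 45 min after adding 0.125 microM importin beta to 50 nM Rango biosensor preincubated 5 min with compound (room temperature, PBS with DTT, Tween-20, BSA). No-importin wells as positive control.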
miR-21 FLuc: qHTS Assay for Modulators of miRNAs and/orActivators of miR-21. HeLa miR-21 FLuc reporter, luciferase, 48 h. 340,000 tested, under 10 active. AID 2288, 2010. Potency, µM (doses to about 38.3 µM), without a hit: top-dose reporter change, positive = more light; active = well fitted rising curve with a large enough effect; inconclusive = small, poorly fitted or top-dose-only effect; inactive = no such curve, though single readings can be large or run the other way;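 also: % of control where 0% means no effect; miR-21 action dims this reporter so a rising signal means less miR-21 action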
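HeLa cells endogenously expressing miR-21, stably carrying CMV-driven firefly luciferase with a downstream miR-21 binding site, 2000 cells/well. Titrations up to approximately 40 uM, 48 hours; luciferase luminescence read.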
* = called active by the depositor; ? = inconclusive; nt = not tested or not shown; [ ] = dose if it differs, or a comment. Not all compounds are listed. The share of hits here may be higher or lower than overall.

| mol | Rango dissoc inh | GLA inh pH 4.5 | Rango complex inh | miR-21 FLuc |
| --- | --- | --- | --- | --- |
| CN(C(=O)COC(=O)c1ccc2c(=O)n3c(nc2c1)CCC3)C1CCS(=O)(=O)C1 (stereo not drawn) | -14% | 9 | ? | -5% |
| CC(=O)Nc1ccc(CCCCc2ccc(NC(C)=O)cc2)cc1 | -7% | nt | -1.0% | nt |
| O=C(c1ccc(NS(=O)(=O)c2ccc(F)cc2)cc1)N1CCOCC1 | 1% | nt | -2.1% | nt |
| Oc1ccc(-c2[nH]ncc2-c2ccc(Cl)cc2)c(O)c1 | 0% | 4 | -0.4% | -1% |
| CNC(=O)COc1ccc(Cl)c2cccnc12 | 2% | 6 | 1.6% | -1% |
| CC(C)c1nc2n[nH]c(N)c2c2c1CCCC2 | 8% | -1 | -2.5% | -14% |
| Cc1nc(N)nc(N)c1/C=C/C(C)(C)c1ccc(Cl)cc1 | -10% | -6 | -0.2% | ? |
| NC(=O)CSc1nnc(-c2ccc3c(c2)OCO3)o1 | 45% | -3 | -0.4% | -34% |
| O=C(CSc1ccc(-c2ccco2)nn1)Nc1ccccc1 | -16% | -1 | 0.9% | -6% |
| N#CCOc1nc(N2CCOCC2)nc(N2CCOCC2)n1 | -10% | 2 | ? | -10% |
| COc1ccc(/C=N/NC(=O)c2ccc(N)cc2)cc1Cn1cc([N+](=O)[O-])cn1 | 8% | -5[21.1 µM] | 0.9% | 16% |
| CCn1c(=O)c(C(=O)NCc2ccc(F)cc2)c(O)c2ccccc21 | 2% | nt | 0.3% | -8% |
| O=C(Nc1ccc(-c2cn3ccccc3n2)cc1)c1ccco1 | 1% | 10 | -0.3% | -47% |
| O=CN1CCN(C(=O)c2cccc3c2-c2ccccc2C3=O)CC1 | 0% | nt | -2.7% | -2% |
| O=C(Nc1ccccc1)N1CCN(c2cccc(C(F)(F)F)c2)CC1 | 5% | -1 | -1.5% | 7% |
| c1ccc2c(CNn3cnnc3)cccc2c1 | 15% | 3 | -0.6% | -4% |
| Cc1[nH]nc2ncc(C(=O)c3ccccc3O)cc12 | -1% | 6 | -1.2% | 22% |
| CCN(C(=O)c1c(C)cc(=O)oc1C)c1ccc2c(c1)OCO2 | 6% | -6 | 2.2% | 2% |
| COc1cccc(CC(=O)Nc2ccc(S(=O)(=O)N3CCOCC3)cc2)c1 | 12% | nt | 1.0% | nt |
| O=C(COc1ccc(Cl)cc1)NCCCn1ccnc1 | -6% | 4 | -0.8% | -6% |
| O=c1[nH]c2ccc(S(=O)(=O)NCc3ccccn3)cc2s1 | 0% | 2 | 2.6% | -9% |
| CCN1CCN(C(=O)Nc2cccc3ccccc23)CC1 | -3% | 9 | -2.9% | -1% |
| C=C1SC(Nc2c(C)cccc2C)=NC12CCCCC2 | -14% | -5 | -2.6% | -3% |
| O=C1c2ccccc2C(=O)N1c1ccc(-c2nc3ccccc3o2)cc1 | nt | 5 | nt | -9% |
| CCCC(=O)c1c[nH]c(C(=O)NCc2ccco2)c1 | 4% | 2 | -4.3% | -3% |
| Cc1csc(N(C(=O)c2ccc(S(=O)(=O)N(C)C)cc2)c2ccccc2)n1 | 15% | 6 | 1.8% | -1% |
| O=C(c1ccccc1)c1ccc(N2CCOCC2)cc1 | -3% | nt | -2.2% | nt |
| Cn1nc(C(=O)OCc2ccc(F)cc2)c2ccccc2c1=O | -23% | 6 | 5.1% | -4% |
| O=S(=O)(Cc1ccccc1)NCC1CCCN(Cc2ccc(F)c(F)c2)C1 (stereo not drawn) | 0% | 0 | -2.6% | -2% |
| CCOc1cc(-c2nc(-c3ccc(C)nc3OCC)no2)cc(OCC)c1OCC | -9% | -2 | 0.6% | 1% |
| O=C(NCc1ccc(F)cc1)C1C2C=CC3(CN(Cc4cccnc4)C(=O)C13)O2 (stereo not drawn) | -13% | -2 | -3.0% | 1% |
| COc1cc(S(=O)(=O)NC2CCSc3ccccc32)ccc1NC(C)=O (stereo not drawn) | -10% | nt | -3.9% | 1% |
| Cc1ccc(NC(=S)NNC(=S)NCc2ccccc2)cc1 | 5% | 1 | -4.6% | -14% |
| N#CC(C(N)=O)=C1CCC2(CC1)OCCCCO2 | 28% | -3 | 1.0% | -1% |
| O=C(O)CCCN=C1CCCc2ccccc2N1 | 5% | 2 | -5.0% | 0% |
| Cc1cc(OC(C)C(=O)NCc2cccnc2)c2c(C)cc(=O)oc2c1 (stereo not drawn) | 1% | nt | -1.7% | -4% |
| NC(=O)/C(=C/c1ccco1)C(N)=S | ? | -1 | ? | -3% |
| COc1cccc(/C=N/n2c(=S)n(C)c3cc(C)c(C)cc32)c1OC | 0% | -8 | 6.8% | -7% |
| Cc1ccc(OCC(=O)c2cc(C)n(-c3ccccc3)c2C)c([N+](=O)[O-])n1 | -5% | 0 | -3.3% | 10% |
| Cc1cc(Nc2cccc(F)c2)nc(-c2ccccc2O)n1 | 1% | -2 | 0.0% | -16% |

2 entries from above, with two lines to a compound.
Under each structure – Rango dissoc inh, GLA inh pH 4.5, Rango complex inh, miR-21 FLuc
- Cn1nc(C(=O)OCc2ccc(F)cc2)c2ccccc2c1=O
 : -23%, 6, 5.1%, -4%
- O=S(=O)(Cc1ccccc1)NCC1CCCN(Cc2ccc(F)c(F)c2)C1 (stereo not drawn)
 : 0%, 0, -2.6%, -2%

Further structures.
| mol | Rango dissoc inh | GLA inh pH 4.5 | Rango complex inh | miR-21 FLuc |
| --- | --- | --- | --- | --- |
| CCOC(=O)Nc1ccc2c(c1)Cc1cc([N+](=O)[O-])ccc1-2 | -10% | nt | 10% | nt |
| Cc1nc(Cc2nnc(SCC(=O)N3CC(=O)Nc4ccccc43)o2)cs1 | -13% | nt | -0.1% | nt |
| CCC(=O)Nc1ccc(NC(=O)Cc2ccccc2)cn1 | -1% | -12 | 5.7% | -8% |
| O=C(NCCc1ccco1)C(=O)NCC1OCCCN1S(=O)(=O)c1ccc(F)cc1 (stereo not drawn) | 1% | nt | 1.5% | 0% |
| CCCCCOc1ccc(C(=O)NC(CCC)C(=O)O)cc1 (stereo not drawn) | -3% | 1 | 4.0% | -3% |
| COc1ccc(-c2nc(NC(=O)C3CC(=O)N(Cc4ccco4)C3)sc2C)cc1 (stereo not drawn) | -15% | nt | -1.6% | nt |
| Cc1c(Cl)c(=O)oc2cc(OCC(=O)NCc3cccs3)ccc12 | 5% | -6 | 1.2% | -7% |
| CCOC(=O)c1sc(NC(=O)CS(=O)(=O)c2ccc(C)cc2)nc1C | -9% | nt | -1.5% | -1% |
| O=C(NCc1ccco1)C(c1ccccc1)N(C(=O)Cc1cccs1)c1cccnc1 (stereo not drawn) | 3% | 12 | 2.3% | -2% |
| O=C1Nc2ccccc2/C1=C/c1cnc(-c2ccccc2)[nH]1 | ? | -12 | ? | -55% |
| NC(=O)c1nsc(C(=O)N(CC(=O)NCc2ccc(F)cc2)Cc2ccco2)c1N | -5% | -2 | -2.3% | 20% |
| Cc1ccc(C(=O)N2CCN(c3ccc(NC(=S)NC(=O)c4cccs4)cc3)CC2)cc1 | 9% | -7 | 0.3% | 30% |
| O=c1c2cccnc2[nH]c(=S)n1CCCN1CCN(c2ccccc2F)CC1 | -5% | 4 | 3.6% | -6% |
| CCc1ccc(CCC(=O)Nc2nnc(C)s2)o1 | -10% | -1 | -4.5% | -1% |
| FC(F)(F)COc1ccc(-n2ccnc2)nn1 | -1% | 0 | -1.5% | 0% |
| O=C(COc1ccc([N+](=O)[O-])cc1)Nc1cc(C(=O)O)cc(C(=O)O)c1 | 5% | 2 | 2.2% | -2% |
| COC(=O)c1ccc(NC(=O)CSC2=NC(=O)C(c3ccccc3)C(=O)N2)cc1 (stereo not drawn) | 1% | -3 | 0.8% | -5% |
| COc1cccc(C(=O)Nc2nnc(S(=O)(=O)N(C)Cc3ccccc3)s2)c1 | 9% | nt | -1.3% | -2% |
| CCOC(=O)c1ccc2c(c1)N(CC(=O)N1CCCC1)C(=O)C(C)(C)O2 | 12% | 3 | -1.0% | -9% |
| Cc1ccc(/C(N)=N/OC(=O)c2cc(-c3ccccc3)nc3ccccc23)cc1 | 10% | 2 | -7.4% | -2% |
| CC(C)(C)OC(=O)N(CCc1ccccc1)Cc1ccccc1OCc1cccc(NC(=O)C2CCCC2)c1 | -3% | nt | 8.6% | nt |
| O=S1(=O)CCN2C(c3ccc4c(c3)CCCC4)=CSC2=N1 | 11% | 2 | -1.3% | 1% |
| Cc1cc(=S)c2cccc(C)c2[nH]1 | 18% | -7 | 0.8% | -2% |
| Cc1[nH]nc2c1C(c1ccc(Cl)cc1)C(C#N)=C(N)O2 (stereo not drawn) | -10% | 0 | -5.7% | -2% |
| COCCNS(=O)(=O)c1ccc(-c2ccc(S(=O)(=O)NCCOC)cc2)cc1 | 2% | nt | -2.0% | -14% |
| O=C(Oc1c(-c2ccccc2)oc2ccccc2c1=O)c1ccccc1 | -9% | 0 | 4.4% | -22% |
| COc1cccc(-n2c(SCC(=O)NCC3CCCO3)nc3c([nH]c4ccccc43)c2=O)c1 (stereo not drawn) | -1% | nt | -1.4% | -3% |
| COc1ccc2[nH]c3c(=O)n(Cc4ccc(C(=O)N5CCC(C(N)=O)CC5)cc4)c(=S)[nH]c3c2c1 | 0% | 1 | -2.8% | 1% |
| Cc1ccc2c(c1)c(=O)c(Br)c(C)n2Cc1ccccc1 | 0% | -5 | 2.3% | -6% |
| Cc1c(CCOC(=O)c2ccc(Cl)cc2Cl)sc[n+]1CC(=O)c1ccc(Br)cc1 | 10% | nt | -0.8% | nt |
| O=C(Nc1ccccc1Cl)c1ccccc1Cl | 9% | 0 | -2.1% | -35% |
| NC(=O)CC[C@@H]1NC(=O)[C@H](Cc2ccccc2)NC(=O)[C@H](Cc2ccc(O)cc2)NC(=O)[C@@H](N)CSSC[C@@H](C(=O)N2CCC[C@H]2C(=O)N[C@@H](CCCN=C(N)N)C(=O)NCC(N)=O)NC(=O)[C@H](CC(N)=O)NC1=O | nt | 4 | nt | -7% |
| COC(=O)c1cc(Cl)c(N)cc1OC | -14% | -4 | 3.1% | -3% |
| CNC(=S)N(Cc1cc2cc(C)cc(C)c2[nH]c1=O)C1CCCC1 | -3% | -21 | 0.0% | -1% |
| Cc1oc2c(cc(NS(=O)(=O)c3ccc(F)cc3)c3ccccc32)c1C(=O)O | -8% | nt | 0.6% | 0% |
| COc1ccc2[nH]c(=O)c(CN(CCO)S(=O)(=O)c3ccc(C)cc3)cc2c1 | 1% | 2 | -1.6% | -12% |
| Cc1cccc2sc(N(CCN(C)C)C(=O)c3ccc4ccccc4c3)nc12 | -2% | nt | -0.5% | -3% |
| S=C(Nc1ccc(Cl)cc1)N(CCCN1CCOCC1)Cc1cccs1 | 0% | 4 | -3.3% | 2% |
| O=C(NC1CCCCC1)c1ccc(CN2CCOCC2)cc1 | 5% | 8 | 1.3% | -38% |
| CCO[C@@H]1OC(C(=O)NCc2ccccc2)=C[C@H](C(C)(C)C)[C@H]1CCCO | -2% | 7 | -0.3% | -7% |
| Cc1cc(Br)ccc1SCC(=O)OC/C(O)=C(\C#N)c1nc2ccccc2[nH]1 | -17% | -2 | -3.0% | 2% |
| Cc1ccc(S(=O)(=O)Nc2cc(C(F)(F)F)ccc2N2CCOCC2)c(C)c1 | 23% | -14 | 0.0% | 4% |
| Cc1cc(S(=O)(=O)NCc2ccccc2)ccc1OCC(=O)NCC1CCCO1 (stereo not drawn) | -7% | -16 | 2.1% | -2% |
| CSc1ccc(/C=N/N2CCN(Cc3ccccc3)CC2)cc1 | -7% | -1 | 0.4% | -14% |
| N#CC(C(=O)NC1CCCCC1)=C1CCCCCC1 | -2% | 1 | -0.8% | -3% |
| CC(Oc1ccccc1)C(=O)Nc1ccc(NC(=O)c2ccccc2)cc1 (stereo not drawn) | 2% | nt | ? | 0% |
| Cc1cccc(NC(=O)CS(=O)(=O)c2cn(CC(=O)N3CCOCC3)c3ccccc23)c1 | -5% | 7 | 0.9% | 1% |
